High-throughput results deposited in PubChem by several laboratories.
PABP polyA inh – PABP poly(A) RNA binding inhibitors, primary screen, biochemical, fluorescence polarization, uHTS | inhibition, % at 35 µM | 1% of 290,000 active | Polyadenylate-binding protein 1 (Homo sapiens), P11940;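 active = 50% or more with normal probe brightness, or confirmed in later tests; about a fifth of its hits are not listed in these tables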;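 note: calls also rest on retests at 20 µM and on dose response follow-up; controls were probe without protein and protein plus probe with vehicle; some compounds called inactive have numbers as strong as hits; many hits fall short of the cut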
Target sequence (P11940 whole entry, looked up): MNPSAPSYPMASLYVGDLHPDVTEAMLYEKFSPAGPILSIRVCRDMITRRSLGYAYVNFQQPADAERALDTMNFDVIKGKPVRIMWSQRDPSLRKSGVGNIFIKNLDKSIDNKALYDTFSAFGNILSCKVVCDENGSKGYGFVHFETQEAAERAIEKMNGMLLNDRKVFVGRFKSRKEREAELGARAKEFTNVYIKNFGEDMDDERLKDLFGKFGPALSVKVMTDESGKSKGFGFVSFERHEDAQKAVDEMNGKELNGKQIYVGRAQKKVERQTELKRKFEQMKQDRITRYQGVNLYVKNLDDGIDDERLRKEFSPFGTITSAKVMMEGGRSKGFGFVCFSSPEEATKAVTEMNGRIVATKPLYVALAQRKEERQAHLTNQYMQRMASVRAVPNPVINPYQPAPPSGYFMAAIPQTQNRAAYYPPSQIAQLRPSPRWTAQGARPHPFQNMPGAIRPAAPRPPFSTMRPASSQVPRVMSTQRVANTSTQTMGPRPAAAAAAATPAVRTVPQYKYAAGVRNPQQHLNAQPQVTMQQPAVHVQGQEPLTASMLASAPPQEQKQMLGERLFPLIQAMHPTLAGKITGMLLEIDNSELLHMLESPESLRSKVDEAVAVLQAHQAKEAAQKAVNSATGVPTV
eIF4H FP inh – human eIF4H binding inhibitors, primary screen, translation initiation inhibitor project, biochemical, uHTS, fluorescence polarization; 0.94% of 290,000 active; Eukaryotic translation initiation factor 4H (Homo sapiens), Q15056; AID 2012, 2009; inhibition, % at 35 µM; eIF4H fluorescence polarization binding assay;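 active = 50% or more with normal probe brightness, or confirmed in later tests; about a fifth of its hits are not listed in these tables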;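 note: calls also rest on retests at 20 µM and on dose response follow-up; 0% = protein and probe with vehicle and 100% = probe without protein; strong numbers were not always called active; many hits fall short of the cut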
Rce1 inh – yeast Rce1p protease inhibitors, primary screen, biochemical, fluorescence, cell-free homogeneous; yeast membranes, quenched prenylated peptide cleavage fluorescence; 0.27% of 290,000 active; CAAX prenyl protease 2 (Saccharomyces cerevisiae (strain ATCC 204508 / S288c)), Q03530; calls only;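 active = fall in fluorescence gain of 50% or more versus controls, with final raw signal at or below 3038400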;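 note: plate controls were neutral control wells for no effect and wells lacking membranes for full effect; tested at 10 µM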
Target sequence (Q03530 whole entry, looked up): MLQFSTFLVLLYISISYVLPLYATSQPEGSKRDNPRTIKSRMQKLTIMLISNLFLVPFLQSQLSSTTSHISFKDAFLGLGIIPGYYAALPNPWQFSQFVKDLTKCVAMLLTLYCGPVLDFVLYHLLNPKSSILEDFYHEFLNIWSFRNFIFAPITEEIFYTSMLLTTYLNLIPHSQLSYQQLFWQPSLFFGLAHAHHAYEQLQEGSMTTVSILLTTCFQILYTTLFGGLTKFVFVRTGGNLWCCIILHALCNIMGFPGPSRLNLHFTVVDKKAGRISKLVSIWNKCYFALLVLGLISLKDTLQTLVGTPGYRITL
CSC inhib – cancer stem cell viability inhibitors, primary screen, luminescence; cancer stem cell-like cells viability; 1.1% of 300,000 active; inhibition, % at 7.5 µM;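 active = mean at 75% or more and at least half the replicates too; tested in HMLE shEcad cells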;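 note: 0% = median of negative and 100% = median of positive control wells; the first replicate is given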
HIV Env fusion – inhibitors of HIV-1 Env-driven cell-cell fusion, primary screen, HeLa-JRFL effector, CEM21 target cells, luciferase; inhibition, % at 12.3 µM; 1.1% of 360,000 active; AID 651610, 2012;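 active = mean replicate inhibition score of at least 50 and every replicate individually at or above 50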;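 note: 0% = plate neutral controls and 100% = maraviroc near 300 nM; one replicate is shown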
UUG fidelity – modulators of yeast start codon fidelity, primary screen, whole organism, S. cerevisiae, single point, plate reader. S. cerevisiae UUG-firefly luciferase reporter, luminescence/redox ratio. activity score, % at 18.7 µM. 0.13% of 350,000 active. AID 602363, 2012;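 active = replicate mean at a twofold rise or more, about +100% in these data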;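 note: firefly luciferase made from a UUG start codon reports start codon fidelity; reporter light over untreated wells divided by growth signal over untreated wells; some hits fall short of that in this replicate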
MT1-MMP act inh – blockers of MT1-MMP proenzyme processing, primary screen, HT1080 RFP-PRO-GFP cells, GFP/RFP fluorescence; AID 651647, 2012; GFP/RFP ratio change, % at 20 µM; 0.061% of 360,000 active; Matrix metalloproteinase-14 (Homo sapiens), P50281; GFP/RFP ratio fluorescence, overnight; percent of plate control window, DMSO zero;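 active = GFP/RFP ratio change of at least 30% with cell ATP level not reduced by more than half and red fluorescence within 50% of control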; note: strong numbers were not always called active
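Assay system: RFP-PRO-GFP reporter HT1080 cells; read-out basis: GFP/RFP fluorescence ratio; benchmarks: DMSO wells and RFP-L50D-GFP cells; doses: 20 µM single dose, 1% DMSO; schedule: overnight cell settling, then overnight compound exposure, 37 °C, 5% CO2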
eIF4H FP inh retest – further read-out of eIF4H FP inh, marked with its call; inhibition, %; compound at 20 µM; confirmation average;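 mean of two retest wells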
PABP polyA inh retest – also measured in PABP polyA inh; calls as there; inhibition, %; compound at 20 µM; confirmation repeats;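 mean of two retest wells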
MT1-MMP act inh RFP – second read-out of MT1-MMP act inh, no call of its own (marks repeat the call); RFP signal change, %; measured here: RFP expression control read;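 0 = vehicle wells; hits needed this value within 50% of zero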
The depositor's hits bear a star; i = inactive; x = no result given; & = joins results of further samples.

SMILES	PABP polyA inh	eIF4H FP inh	Rce1 inh	CSC inhib	HIV Env fusion	UUG fidelity	MT1-MMP act inh	MT1-MMP act inh RFP	others
COCCNC(=O)COC(=O)c1[nH]c(C)c(C(C)=O)c1C	9	-2	i	-5	x	-7	3	2
CC1(C)CC(=O)C2=C(C1)c1c(ccc3ccccc13)NC2c1ccc(Br)o1 (stereo not drawn)	11	-2	i	-9	x	-21	-41	-36
O=C(Cn1nc(C(F)(F)F)c2c1CCC2)N1CCN(c2ccccc2)CC1	0	10	i	1	-34	-17	-2	-3
CC(NCC(c1ccco1)N1CCCCC1)C(=O)NC1CCCC1 (stereo not drawn)	-9	35	i	-7	1	-8	2	5
COCc1c(Br)c(C)nc(OCC(=O)N/N=C/c2ccc(C)o2)c1C#N	58	7	i	-14	-1	x	0	2	eIF4H FP inh retest=-9;PABP polyA inh retest=-4
COCCNc1nc(Oc2ccccc2)c2sccc2n1	x	x	x	x	13	6	-3	0
COc1ccc(-c2nc(CS(=O)CC(=O)NCCCN3CCCC3)c(C)o2)cc1OC (stereo not drawn)	-5	-2	i	4	-14	x	-6	0
Cc1cc(NS(=O)(=O)c2ccc(NC(=O)c3ccccc3C)cc2)no1	3	5	i	-3	4	x	-2	2
CCCCn1c(N)c(N(CCOC)C(=O)C2CCN(C(=O)c3ccccc3C)CC2)c(=O)[nH]c1=O	x	x	i	-2	2	x	5	5
COC(=O)[C@@H]1CCCN1Cc1c(C(=O)N2CCCCC2)nc2c(C)cccn12	12	11	i	-3	8	6	-2	4
COC(=O)CN1C(=O)[C@H]2[C@@H](c3ccc(C)o3)N3C(=O)CN(CCO)C(=O)[C@@]3(C)[C@H]2C1=O	12	2	i	4	31	-4	-2	2
CC(=O)N1c2ccccc2S(=O)(=O)c2ccccc21	x	x	i	11	-15	8	-1	4
C[C@@H]1CCCCO[C@@H](CN(C)CC2CCCCC2)[C@@H](C)CN([C@H](C)CO)C(=O)c2cc(NS(=O)(=O)c3ccc(Cl)cc3)ccc2O1	x	x	x	x	-56	-5&7	0	-13
CC1(NS(=O)(=O)c2ccc(Cl)s2)CCS(=O)(=O)C1 (stereo not drawn)	x	x	x	-19	-4	-8	0	2
COCCN(Cc1cc2cccc(C)c2n2nnnc12)C(=O)C(F)(F)F	0	-10	i	x	-24	-15	-3	-8
CCc1nnc(/N=C/c2c(O)n(-c3ccc(Cl)cn3)c(=O)c3ccccc23)s1	-9	1	i	6	-6	x	-6	3
COC(=O)CCC(=O)OC1(C)C(=O)C=C2C=C(C3CC3)N(CC3CC3)C=C2C1=O (stereo not drawn)	28	52	i	-2	-27	-17	1	7	eIF4H FP inh retest=18;PABP polyA inh retest=23
Cn1c(=O)c(C(=O)Nc2ncccn2)c(O)c2ccccc21	-4	-1	i	-2	x	52	5	13
COCCNC(=O)C(c1ccc(C)cc1)N(C(=O)CCC(=O)Nc1ccccn1)c1ccccc1C (stereo not drawn)	0	4	i	1	-7	-13	-7	-4
COc1ccc(CNCCC(c2ccccc2)c2ccc(OC(C)C)cc2)cc1OC (stereo not drawn)	-6	-9	i	10	32	-8	-3	-5
CCN(CCN(C)C)C(=O)Cn1ncc2c1-c1cc(C)ccc1OC2	-8	-6	i	x	-12	-19	-1	4
CCOC(=O)c1cc(S(=O)(=O)NC2CCN(C(=O)OCC)CC2)cn1C	-1	-5	i	-13	x	-2	0	-3
Cc1ccc(O)c(Sc2cc(C)ccc2O)c1	7	-3	i	22	x	-9	11	5
CC(C)(C)OC(=O)NCCOC(=O)c1[nH]cnc1C(=O)NCc1ccccc1	x	x	x	-1	7	-2	8	-7
O=C(CCCCC(=O)Nc1ccc(F)cc1)Nc1ccc(F)cc1	-4	6	i	4	8	13	3	1
CC(C)CCNC(=O)C1CCCCN1S(=O)(=O)c1ccc(F)cc1 (stereo not drawn)	-5	-5	i	-7	x	-5	1	1
CCOC(=O)N1CCN(Cc2nc(N)nc(Nc3ccc(C)cc3C)n2)CC1	-3	-3	i	-6	12	x	6	0
COc1ccccc1/C=N/Nc1cc(C)nc2ccc(C)cc12	4	-5	x	57	24	-25	1	-2
CCN(CC(=O)NCc1cccs1)C(=O)/C=C/c1ccc(OC)cc1OC	x	x	i	-10	2	-31	-3	-1
CC(C)(C)NC(=O)/C(=C/c1ccco1)c1ccccc1	6	4	i	x	x	-8	-1	7
C=CC[C@@H](CC(=O)N[C@H](CO)Cc1ccccc1)C(=O)N[C@@H](COC(=O)[C@@H](CC=C)CC(=O)OC(C)(C)C)Cc1ccccc1	x	x	x	-9	x	10	1	1
COc1ccc(/C=C2\CN(Cc3ccccc3)C/C(=C\c3ccc(OC)c(O)c3)C2=O)cc1O	-11	-6	i	119*	x	-5	-21	-28
CCC(=O)c1c(NC)cc(C)oc1=O	19	9	i	-18	-15	x	1	7
CC(=O)CCC(=O)NC1CCCc2c1cnn2-c1ccc(C(C)(C)C)cc1 (stereo not drawn)	0	-9	i	15	18	-12	2	-21
Cn1c(=O)cc(OCCCC(=O)Nc2cccc(Cl)c2)c2ccccc21	x	x	x	x	22	-25	17	9
CCN(CC)S(=O)(=O)c1cccc(C(=O)Nc2nnc(C)s2)c1	10	-2	i	0	-11	x	1	5
O=C(NC1CCCN(Cc2ccc(Cl)cc2)C1)c1c(F)cccc1F (stereo not drawn)	30	44	i	-6	3	-14	1	-2
COc1ccc(/C=C2\C(=O)NC(=S)N2C(=O)c2ccc(F)cc2)cc1	0	48	i	6	-80	-13	-195	-3
COc1ccccc1NC(=O)CSC(N)=O	0	8	i	-15	x	x	1	3
CC(=O)NS(=O)(=O)c1ccc(NC(=O)/C=C/c2ccccc2)cc1	6	2	i	2	12	x	5	6

Next section, starting with the last two of the part before.
SMILES	PABP polyA inh	eIF4H FP inh	Rce1 inh	CSC inhib	HIV Env fusion	UUG fidelity	MT1-MMP act inh	MT1-MMP act inh RFP	others
COc1ccccc1NC(=O)CSC(N)=O	0	8	i	-15	x	x	1	3
CC(=O)NS(=O)(=O)c1ccc(NC(=O)/C=C/c2ccccc2)cc1	6	2	i	2	12	x	5	6
CC(=O)Nc1nc(C(=O)Nc2c(C)n[nH]c2C)cs1	-3	8	i	-12	0	-17	1	5
CCOc1ncccc1C(=O)N1CCN(S(=O)(=O)c2ccc3c(c2)OCCO3)CC1	x	x	x	-8	5	-28	-2	2
COc1ccc(C(=O)O)cc1S(=O)(=O)NCc1cccnc1	-4	2	i	-3	10	-11	0	1
Cc1[nH]c2ccccc2c1/C=C/c1nc2ccccc2c(=O)[nH]1	-4	27	x	30	-70	-17	-3	-4
CC(C)CC(=O)NNC(=O)C(C)C	1	-10	i	7	-17	-11	-2	4
COc1ccc(Cn2c(C3CC3)nc3ccc(NC(C)=O)cc3c2=O)cc1	4	-1	i	-2	x	-2	-4	-2
COc1ccc(N(CC(=O)NCCSC2CCCCC2)S(=O)(=O)c2ccccc2)c(OC)c1	15	-3	x	-2	64*	-5	-2	-3
CCN(CC)S(=O)(=O)c1cccc(NC(=O)Nc2cccc(C(F)(F)F)c2)c1	3	0	i	103*	118*	23	-19	-31
COc1cc(CN2CC(=O)N(c3cccc(Cl)c3C)C2=S)cc(OC)c1OC	0	0	i	12	5	-2	-6	-8
Cc1ccc(S(=O)(=O)NC(C)C(=O)Nc2ccccc2C(=O)N2CCCC2)cc1 (stereo not drawn)	-4	-2	i	x	1	-2	0	-2
COC(=O)CCCCCCCCC(O)C[N+]1(C)CCOCC1 (stereo not drawn)	x	x	i	-15	5	-9	-3	-3
O=C(Nc1ccccc1N1CCN(c2ccc(F)cc2)CC1)C12CC3CC(CC(C3)C1)C2	-5	-1	i	14	5	-11	-11	-9
CCCCn1c(=O)c2c(nc3n2CCCN3Cc2ccccc2)n(C)c1=O	2	-15	i	x	12	x	5	-7
COC(=O)/C=C/C(=O)N1CCN(c2ccccc2C)CC1	0	2	i	-1	7	-21	-2	4
CCC(=O)Nc1ccccc1Nc1cc(C#N)c(C#N)cc1[N+](=O)[O-]	2	-6	i	8	x	-1	20	5
CC(C)c1ccc(/C=N/NC(=O)c2ccccc2Cl)cc1	-12	2	i	62	-481	x	5	-9
Cc1ccc(S(=O)(=O)N2C[C@H]3[C@H]4C(=O)N(c5ccccc5)C(=O)[C@H]4C[C@H](OC(=O)NCc4ccccc4F)[C@@]3(O)C2)cc1	x	x	x	x	0	-1	3	7
O=C(Nc1ccc(C(=O)N2CCCCC2)cc1)c1ccccc1	x	x	x	x	-25	-23	2	3
CCOC(=O)c1c(N)sc(C(=O)N2CCCCC2)c1C	2	-5	i	-12	x	2	2	4
O=C(c1cccc(C(F)(F)F)c1)N1CCOC12CCN(c1ncc(C(F)(F)F)cc1Cl)CC2	-1	-2	i	67	x	x	-2	-23
O=C1C2(CCC13COC(c1ccc(O)cc1)OC3)COC(c1ccc(O)cc1)OC2 (stereo not drawn)	-9	4	i	3	21	23	-1	0
COc1ccc(Cl)cc1NC(=O)CN(C)C(=O)C1CC(=O)N(Cc2ccc(C)cc2)C1 (stereo not drawn)	x	x	i	-6	39	x	-1	-2
CCSc1nnc(-c2ccc(C)cc2)c2ccccc12	-4	-5	i	8	8	-8	3	-6
Cc1onc(-c2c(Cl)cccc2Cl)c1C(=O)N/N=C(\N)COc1ccc(Cl)cc1	-4	20	i	101*	41	-31	1	-10
CC(=O)c1c(N2CCN(Cc3ccccc3)CC2)[nH]c(-c2ccccc2)nc1=S	25	16	i	-7	7	-16	-14	9

In the list so far, these have a Cl atom.
SMILES	PABP polyA inh	eIF4H FP inh	Rce1 inh	CSC inhib	HIV Env fusion	UUG fidelity	MT1-MMP act inh	MT1-MMP act inh RFP	others
C[C@@H]1CCCCO[C@@H](CN(C)CC2CCCCC2)[C@@H](C)CN([C@H](C)CO)C(=O)c2cc(NS(=O)(=O)c3ccc(Cl)cc3)ccc2O1	x	x	x	x	-56	-5&7	0	-13
CC1(NS(=O)(=O)c2ccc(Cl)s2)CCS(=O)(=O)C1 (stereo not drawn)	x	x	x	-19	-4	-8	0	2
CCc1nnc(/N=C/c2c(O)n(-c3ccc(Cl)cn3)c(=O)c3ccccc23)s1	-9	1	i	6	-6	x	-6	3
Cn1c(=O)cc(OCCCC(=O)Nc2cccc(Cl)c2)c2ccccc21	x	x	x	x	22	-25	17	9
O=C(NC1CCCN(Cc2ccc(Cl)cc2)C1)c1c(F)cccc1F (stereo not drawn)	30	44	i	-6	3	-14	1	-2
COc1cc(CN2CC(=O)N(c3cccc(Cl)c3C)C2=S)cc(OC)c1OC	0	0	i	12	5	-2	-6	-8
CC(C)c1ccc(/C=N/NC(=O)c2ccccc2Cl)cc1	-12	2	i	62	-481	x	5	-9
O=C(c1cccc(C(F)(F)F)c1)N1CCOC12CCN(c1ncc(C(F)(F)F)cc1Cl)CC2	-1	-2	i	67	x	x	-2	-23
COc1ccc(Cl)cc1NC(=O)CN(C)C(=O)C1CC(=O)N(Cc2ccc(C)cc2)C1 (stereo not drawn)	x	x	i	-6	39	x	-1	-2
Cc1onc(-c2c(Cl)cccc2Cl)c1C(=O)N/N=C(\N)COc1ccc(Cl)cc1	-4	20	i	101*	41	-31	1	-10

An excerpt (hit frequency here may not be typical).
